Screens from PubChem BioAssay.
Sa growth inh: inhibitors of Staphylococcus aureus growth at 42 °C; relative growth, % (concentration not given with the values); AID 720641; 170,000 compounds, 0.53% hits; S. aureus RN4220 growth, OD600, 20 h; stronger effect = lower value;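 active = growth at 42 °C up to 50% and 20 or more points under that at 30 °C, or under 10% at both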;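 note: 300 nL library stock went into each well; scaled to the means of positive and negative controls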
GIV-Gai inh: blocks GIV peptide binding to rat Galpha-i3; Galpha-i3/FITC-GIV peptide fluorescence polarization, 90 min; stronger effect = lower value; scaled: aluminum fluoride 0%, vehicle 100%; 210,000 compounds, 0.42% hits; percent of control (FP), % (concentration not given with the values);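 active = replicate mean at 85% of control or lower, very high polarization wells dropped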;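 note: wells of about 15 µL received 100 nL stock; the first replicate is given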
Target sequence (P08753 whole entry, looked up): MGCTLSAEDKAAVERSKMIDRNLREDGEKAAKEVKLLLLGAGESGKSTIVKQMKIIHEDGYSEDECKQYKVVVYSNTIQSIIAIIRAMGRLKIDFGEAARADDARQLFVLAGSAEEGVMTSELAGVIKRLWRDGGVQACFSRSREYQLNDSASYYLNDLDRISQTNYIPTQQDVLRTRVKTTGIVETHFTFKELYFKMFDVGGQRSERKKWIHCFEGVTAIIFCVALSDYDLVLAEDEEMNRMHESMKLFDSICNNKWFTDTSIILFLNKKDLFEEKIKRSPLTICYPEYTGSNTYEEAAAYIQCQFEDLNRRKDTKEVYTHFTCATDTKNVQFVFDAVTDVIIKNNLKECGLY
HCMV NEC inh: disrupts HCMV UL50-UL53 complex binding. inhibition, % (no concentration beside the values). HTRF UL50-UL53 interaction, normalized percent inhibition. 190,000 compounds, 0.15% hits. AID 1918969;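 active = both replicates at 50% or more, plus weaker picks with an unusually low signal ratio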;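 note: stock transfer was 100 nL into about 20 µL; 0% = negative control wells and 100% = wells with untagged competitor protein; inactives centre near -12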
Sa growth inh second temp: second read-out of Sa growth inh, no call of its own (marks repeat the call); relative growth, %; measured here: growth at 30 °C;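 optical density after 20 h as mean of two plates; 100% = untreated growth and lower means inhibition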
Starred values were filed as active, the others as inactive; nt = no result given; & = joins results of further samples.

SMILES | Sa growth inh | Sa growth inh second temp | GIV-Gai inh | HCMV NEC inh
Cc1noc2nc(C(=O)O)nc(N3CCCC3)c12 | nt | nt | 91 | -19
O=C1C(=O)N(C2CCN(C(=O)c3cccc(Cl)c3)CC2)CCN1Cc1ccccc1 | nt | nt | 103 | -22
Fc1ccc(Nc2nc(SCc3cccc(F)c3)nc3ccccc23)cc1 | 98 | 84 | 101 | nt
Cn1cnnc1Sc1ccc(Cl)cc1NS(=O)(=O)c1ccc2c(c1)OCCO2 | 100 | 93 | nt | 2
O=C(O)C1(S(=O)(=O)c2ccc(Cl)cc2)CCCC1 | 97 | 90 | nt | -8
Cc1ccc(NC(=O)N2CCC(CN3CCCCC3)CC2)cc1Cl | nt | nt | 98 | 13
CCCCn1c(C2CCCO2)nc2ccccc21 (stereo unspecified) | 104 | 89 | 105&104 | -7&-29
CN(C)CCN1CCNCC1 | 78 | 101 | 103 | -3
Cc1cccc(C(=O)Cc2ccccc2O)c1 | 92 | 59 | nt | 5
CN(CC(=O)O)Cc1nc2ccccc2[nH]1 | 125 | 112 | 102 | -1
CCCCn1c(CCC(=O)O)ccc1-c1cccs1 | 95 | 77 | 99 | -8
CCOC(=O)C1=C(C)N=c2s/c(=C\c3ccc(O)c(Br)c3)c(=O)n2C1c1ccccc1 (stereo unspecified) | nt | nt | 180 | -23
CCOC(=O)c1ccc(NC(=O)Cn2c(=O)cc(C)c3c(C)nn(-c4cccc(F)c4)c32)cc1 | 91 | 92 | 105 | nt
COc1ccccc1CNC(=O)c1cccc(C2CCCN(C(=O)NC(C)C)C2)c1 (stereo unspecified) | nt | nt | 106 | -22
COC(=O)Nc1c(-c2ccccc2)nc2ccc(C)cn12 | 126 | 98 | 97 | -31

Overlap with the part before: 3 compounds, followed by the next part.
SMILES | Sa growth inh | Sa growth inh second temp | GIV-Gai inh | HCMV NEC inh
CCOC(=O)c1ccc(NC(=O)Cn2c(=O)cc(C)c3c(C)nn(-c4cccc(F)c4)c32)cc1 | 91 | 92 | 105 | nt
COc1ccccc1CNC(=O)c1cccc(C2CCCN(C(=O)NC(C)C)C2)c1 (stereo unspecified) | nt | nt | 106 | -22
COC(=O)Nc1c(-c2ccccc2)nc2ccc(C)cn12 | 126 | 98 | 97 | -31
C=Cc1c(C)c2cc3[nH]c(cc4nc(cc5nc(cc1[nH]2)C(C)=C5CCC(=O)O)C(CCC(=O)O)=C4C)c(C)c3C=C | nt | nt | 106 | 86*
COc1cccc(-c2nnc(SCN3C(=O)c4ccccc4C3=O)n2Cc2ccco2)c1 | 104 | 86 | nt | -11
CCCN(CCC)C(=O)Cn1c(=O)n(-c2cccc(OC)c2)c(=O)c2c(C)c(C(=O)N(C)C)sc21 | 104 | 91 | 97 | nt
CC(C)(C)C1CCc2c(sc3nc(CCC(=O)NC4CC4)[nH]c(=O)c23)C1 (stereo unspecified) | nt | nt | 113 | 14
COC(=O)c1ccc2c(=O)n(CCCC(=O)N3CCc4ccccc4C3)c(=S)[nH]c2c1 | nt | nt | 103 | 1
O=C(Cn1cnc2c(cnn2-c2ccccc2)c1=O)c1ccccc1 | 99 | 80 | 103 | -6
O=C(Nc1ccccc1C(=O)OCc1cc(=O)n2ccsc2n1)c1ccccc1Cl | 104 | 90 | 102 | nt
CCCN1CCN(CCCNC(=O)c2cc3c(s2)-c2c(C)cccc2OC3)CC1 | 93 | 104 | 110 | -58
Cc1cc(C)cc(NC(c2nnc(-c3cccc(F)c3)o2)c2ccc(F)cc2Cl)c1 (stereo unspecified) | 105 | 88 | 104 | -9
CCOc1ccc(-c2nnc(SCC(=O)c3ccccc3)n2-c2ccccc2)cc1 | 105 | 105 | 109 | -11
Cc1ccccc1-c1noc(C(C)NC(=O)c2ccco2)n1 (stereo unspecified) | 98 | 77 | 107 | -34
COc1ccc(C(=O)CSc2ncn(-c3ccccc3)n2)cc1OC | 90 | 86 | 100 | -19
CCN(CC)S(=O)(=O)c1ccc(NC(=O)Cn2ncc3c([nH]c4ccccc43)c2=O)cc1 | 98 | 82 | 105 | nt
CN(C)S(=O)(=O)N(CC(=O)N1CCN(c2ccc(F)cc2)CC1)c1ccccc1 | nt | nt | 104 | -20
O=C(OCc1ccccc1)c1ccc2c(c1)OCO2 | 79 | 86 | nt | -31
O=C(Nc1cccc2nsnc12)C1CCN(S(=O)(=O)N2CCOCC2)CC1 | nt | nt | 101 | -64
Cc1ccccc1NC(=O)CN1C(=O)CSc2ccccc21 | 158 | 92 | 99&94 | 2&-9
CCOC(=O)C1=C(C(C)c2ccccc2)NC(=O)NC1C (stereo unspecified) | 95 | 83 | 100 | -33
CCC(C)NC(=O)CSc1nnc(-c2ccc(C)c(C)c2)o1 (stereo unspecified) | 99 | 94 | nt | -17
Cc1cc(NCc2ccccc2)c2ccccc2n1 | 85 | 75 | 107 | -2
Nc1ccc(-c2cnco2)cc1 | 106 | 100 | 102 | 5
O=c1c(NCc2cccs2)nccn1-c1ccc(F)cc1 | 104 | 85 | 102 | nt
O=C(Cc1ccccc1)Nc1sc2c(c1C(=O)Nc1ccc(Cl)cc1)CCCC2 | 83 | 81 | 107 | -4
CC(C)c1cc(C(C)C)c(S(=O)(=O)NCCO)c(C(C)C)c1 | 128 | 82 | 95 | -10
Nc1ccccc1S(=O)(=O)NC1=NCCCCC1 | 94 | 96 | nt | -14
CCCc1ccc(-c2ccc(C(=O)Oc3ccc(OCC)cc3)cc2)nc1 | 107 | 97 | 103 | -42
COc1ccccc1N1CCN(c2ccc(NC(=O)c3ccc(C)cc3)cc2C(=O)O)CC1 | 113 | 89 | 98 | nt
O=S(=O)(Nc1ccc(N2CCCS2(=O)=O)cc1)c1cc(F)ccc1F | nt | nt | 103 | 6
CCOc1ccc2nc(N3CCN(C(=O)c4ccc(S(=O)(=O)CC)cc4)CC3)sc2c1 | 107 | 93 | 95 | nt
Cc1ccc2nc(COc3ncnc4ccccc34)cc(=O)n2c1 | 83 | 84 | nt | -57
O=C1NC(c2ccccc2)=NC1(Nc1ccccn1)C(F)(F)F (stereo unspecified) | 99 | 95 | 107 | 0
COc1ccc(CNC(=O)CN2C(=O)COc3ccc(S(=O)(=O)Nc4ccccc4)cc32)cc1 | 99 | 81 | 111 | nt
Cc1ccc(C2=NN(C(=O)CCC(=O)O)C(c3ccc(F)cc3)C2)cc1 (stereo unspecified) | nt | nt | 102 | -23
CCOC(=O)Cc1c(C)nc2cc(C)nn2c1C | 110 | 75 | 101 | 0
CC1CCN(C(=O)Cn2cc(SCC(=O)Nc3ccccc3C(F)(F)F)c3ccccc32)CC1 | 94 | 88 | 108 | nt
Cc1cc(C)cc(NC(=O)CCn2cnc3ccccc3c2=O)c1 | 104 | 89 | 104 | nt
Cc1ccc(-c2nc(C)c(CCNC(=O)C(=O)Nc3ccc(C)c(Cl)c3)s2)cc1 | 126 | 94 | 107 | nt
COc1ccc(C(=O)N2c3ccccc3C(N(C(=O)c3ccc(OC)cc3)c3ccccc3)CC2C)cc1 (stereo unspecified) | nt | nt | 97 | -6
O=C1c2cccnc2C(=O)N1Cc1ccc(S(=O)(=O)NCc2ccccc2)cc1 | 105 | 101 | 101 | nt
CCCCS(=O)(=O)Nc1ccc(C(=O)NCC2CCCO2)cc1 (stereo unspecified) | 110 | 88 | 102 | -15
O=C(NCc1ccco1)c1cc(-c2ccc(F)cc2)no1 | 107 | 99 | 109 | nt
O=C(NCc1cccc(Br)c1)c1ccc(NC(=O)N2CCCCc3ccccc32)cc1 | 91 | 89 | 97 | nt
COc1ccc(/C=C2/C(=N)N3N=C(Cc4ccccc4)SC3=NC2=O)cc1OC | 95 | 98 | 130 | nt
O=C(c1ccncc1)N1C2C=CC(C2)C1(C(F)(F)F)C(F)(F)F (stereo unspecified) | 125 | 86 | 102 | nt
Clc1ncnc2sc3c(c12)CCCC3 | 117 | 94 | 105 | -90

The last 2 entries of the part before lead into the next.
SMILES | Sa growth inh | Sa growth inh second temp | GIV-Gai inh | HCMV NEC inh
O=C(c1ccncc1)N1C2C=CC(C2)C1(C(F)(F)F)C(F)(F)F (stereo unspecified) | 125 | 86 | 102 | nt
Clc1ncnc2sc3c(c12)CCCC3 | 117 | 94 | 105 | -90
Cc1c(C2=CCN(S(=O)(=O)c3ccc(Cl)cc3)CC2)c2ccccc2n1C | nt | nt | 97 | -34
COc1ccc(-c2nc(C)c(CCNC(=O)c3ccccc3Br)s2)cc1OC | 100 | 82 | 101 | nt
O=C(O)CN1C(=O)/C(=C\c2ccccc2)SC1=S | 121 | 103 | 99 | -119
O=C(O)C1CCN(S(=O)(=O)c2ccc3ccccc3c2)CC1 | 90 | 97 | nt | 6
O=C(/C=C/C=C/c1ccccc1)CC1(O)C(=O)Nc2ccc(Br)cc21 (stereo unspecified) | 96 | 69 | 101 | nt
CCCCCn1c(=O)c2sccc2n2c(CCC(=O)N3CCN(C4CCCCC4)CC3)nnc12 | nt | nt | 97 | -20
O=C(Nc1cccc(Cl)c1)Nc1nc(CC(=O)N2CCc3ccccc32)cs1 | nt | nt | 103 | -10
CCOC(=O)C1=C(C)NC(C)=C(C(=O)OCC)C1C(=O)OCc1cc(=O)n2cc(C)ccc2n1 | 103 | 87 | nt | -22
COc1ccc(/C=C2\SC(=O)N(CCC(=O)N3CCCCC3)C2=O)cc1OC | nt | nt | 104 | -31
CCCNC(=O)NS(=O)(=O)c1ccc(Cl)cc1 | 90 | 84 | 95&98 | -13&-11&2&-15&-16&-10
CCN(C(=S)NC(=O)c1ccco1)c1cccc2ccccc12 | 110 | 68 | nt | -16
COc1cccc(NC(=O)CN2C(=O)COc3ccc(S(=O)(=O)N4CCCCCC4)cc32)c1 | 103 | 67 | 97 | nt
N#CC1=C(SCc2ccccc2)NC2=C(C(=O)CCC2)C1c1ccc(Cl)cc1 (stereo unspecified) | 104 | 66 | nt | -33
O=C(Oc1cc(=O)oc2c1c(=O)n1c3c(cccc23)CCC1)c1ccccc1 | 97 | 83 | 104 | 10
COc1ccc(OC)c(Nc2cc(C)nc3nc(C)nn23)c1 | 88 | 81 | 100 | -2
COC(=O)c1ccc(OCC2c3cc(OC)c(OC)cc3CCN2C(=O)c2ccccc2C)cc1 (stereo unspecified) | 100 | 86 | 99 | nt
COc1ccc(/C=C2/SC(N)=NC2=O)cc1OCc1ccc(Cl)cc1Cl | nt | nt | 100 | -12
O=C(c1ccc(S(=O)(=O)NCc2ccco2)cc1)N1CCc2ccccc21 | 98 | 95 | nt | -18
CCc1nc(-c2cc(S(=O)(=O)N3CCC(C(=O)NC4CC4)CC3)c(C)s2)no1 | nt | nt | 103 | -10
CCOC(=O)c1c(C=O)oc2c(C)cc(OC(=O)c3cccc([N+](=O)[O-])c3)c(Br)c12 | nt | nt | 115 | -3
COc1ccc(S(=O)(=O)Nc2cccc(N3CCCS3(=O)=O)c2)cc1 | nt | nt | 99 | 8
O=C(Nc1cccc(Br)c1)c1cc(-c2ccco2)nc2ccccc12 | nt | nt | 111 | 0
Cc1occc1-c1nnc(SCC(=O)Nc2ccc3c(c2)OCO3)n1CC(C)C | 114 | 101 | 105 | -14
O=C(Nc1ccc(F)cc1)n1ncc2cc(Cl)ccc21 | 88 | 94 | 110&112 | -8&2
O=C(Nc1ccc(F)c(Cl)c1)c1cccc(NC2=NC3CS(=O)(=O)CC3S2)c1 (stereo unspecified) | nt | nt | 107 | -34
CCc1nnc(NC(=O)C(C)c2c(C)n[nH]c2C)s1 (stereo unspecified) | 96 | 86 | 102 | -30
Cc1ccc(-n2c3c(c(=O)[nH]c2=O)C(NC(=O)c2ccccc2C)(C(F)(F)F)C(=O)N3)cc1 (stereo unspecified) | 103 | 88 | 105 | -1
CCOc1ccc(C2c3c(oc4ccccc4c3=O)C(=O)N2Cc2ccc3c(c2)OCO3)cc1 (stereo unspecified) | 107 | 75 | 100 | -25
Cc1ccc(C(C)C)c(OCC(=O)Nc2ccc(O)c(-c3nc4cc(Cl)ccc4o3)c2)c1 | 108 | 92 | 105 | -41
O=C(NCCCN1CCOCC1)Nc1ccc(Cl)cc1 | 116 | 103 | 108 | 1

An excerpt from above with just Sa growth inh second temp and HCMV NEC inh.
Compound,Sa growth inh second temp,HCMV NEC inh
COc1ccc(S(=O)(=O)Nc2cccc(N3CCCS3(=O)=O)c2)cc1,nt,8
O=C(Nc1cccc(Br)c1)c1cc(-c2ccco2)nc2ccccc12,nt,0
Cc1occc1-c1nnc(SCC(=O)Nc2ccc3c(c2)OCO3)n1CC(C)C,101,-14
O=C(Nc1ccc(F)cc1)n1ncc2cc(Cl)ccc21,94,-8&2
O=C(Nc1ccc(F)c(Cl)c1)c1cccc(NC2=NC3CS(=O)(=O)CC3S2)c1 (stereo unspecified),nt,-34

Continuation.
SMILES | Sa growth inh | Sa growth inh second temp | GIV-Gai inh | HCMV NEC inh
CCOc1cc(C(=O)OCc2nnc(-c3ccccc3)o2)ccc1OCC(=O)N1CCCCC1 | 89 | 94 | nt | -22
CCc1ccc(NC(=O)c2cccc(Nc3cnc4ccccc4n3)c2)cc1 | nt | nt | 93 | -9
NC(=O)Cn1c(COC(=O)Cc2coc3ccc4ccccc4c23)nc2ccccc2c1=O | 100 | 82 | nt | -10
O=c1[nH]c2cc(Cl)c(Cl)cc2c(O)c1-c1ccccc1 | 98 | 95 | 99 | 2
